KCNQ2 enhance – KCNQ2 (rat) channel potentiation; CHO-K1 KCNQ2, FluxOR thallium flux fluorescence; stronger effect = higher value; B-score at 10 µM; 0.54% of 310,000 active;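 active = fluorescence ratio B-score at least 3 SD of library B-scores, with initial fluorescence B-score within 3 SD, cut at about 5.3 in these data; same plate scores as AID 2156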;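 note: B-score of peak minus minimum over baseline fluorescence ratio after K+ and Tl+ stimulus; positive B-score means potentiation of KCNQ2 with more thallium influx and brighter signal; only the inactives scoring about 0 or higher are listed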
Target sequence (O88943 whole entry, looked up): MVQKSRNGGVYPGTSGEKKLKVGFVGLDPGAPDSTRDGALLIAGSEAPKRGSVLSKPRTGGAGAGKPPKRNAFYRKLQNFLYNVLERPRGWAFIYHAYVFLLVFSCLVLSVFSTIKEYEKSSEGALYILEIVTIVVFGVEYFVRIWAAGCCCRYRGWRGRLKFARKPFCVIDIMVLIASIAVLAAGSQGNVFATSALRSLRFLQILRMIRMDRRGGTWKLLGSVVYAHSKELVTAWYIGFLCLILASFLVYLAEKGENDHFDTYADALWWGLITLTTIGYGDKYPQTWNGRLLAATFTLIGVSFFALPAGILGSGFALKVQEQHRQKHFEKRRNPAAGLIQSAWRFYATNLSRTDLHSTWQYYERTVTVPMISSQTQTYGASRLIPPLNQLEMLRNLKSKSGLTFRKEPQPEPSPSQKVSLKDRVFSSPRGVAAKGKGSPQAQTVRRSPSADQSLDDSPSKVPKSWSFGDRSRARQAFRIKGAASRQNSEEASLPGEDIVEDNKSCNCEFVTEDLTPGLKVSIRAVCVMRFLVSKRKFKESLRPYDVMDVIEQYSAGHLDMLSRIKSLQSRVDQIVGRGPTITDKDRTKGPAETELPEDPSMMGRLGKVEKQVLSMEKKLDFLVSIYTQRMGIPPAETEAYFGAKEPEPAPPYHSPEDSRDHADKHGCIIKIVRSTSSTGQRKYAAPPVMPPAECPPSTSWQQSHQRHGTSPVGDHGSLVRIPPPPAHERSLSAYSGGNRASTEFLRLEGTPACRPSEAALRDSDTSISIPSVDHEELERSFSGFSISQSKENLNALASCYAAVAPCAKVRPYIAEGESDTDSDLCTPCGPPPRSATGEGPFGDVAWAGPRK
KCNQ2 enhance baseline – second read-out of KCNQ2 enhance, no call of its own (marks repeat the call); B-score; compound at 10 µM; measured here: initial fluorescence intensity artifact check;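 brightness before thallium and not channel activity; 0 = typical well and far values either way flag optical interference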
Starred values were filed as active, the others as inactive. This is a subset; count on the stated rates, not on these rows.

How did Clc1ccccc1/C=C/C=N/Nc1nc(N2CCOCC2)nc(N2CCOCC2)n1 do in these assays?
KCNQ2 enhance: 0.9; KCNQ2 enhance baseline: 0.97

What do the screens show for `CCOC(=O)C1=C(COC(=O)CNC(=O)c2cccc(C)c2)NC(=O)NC1C` (configuration not stated)?
KCNQ2 enhance: 0.44; KCNQ2 enhance baseline: -0.11

How did CC1SCC(=O)N(CC(=O)Nc2ccc3c(c2)OCO3)C1=O (configuration not stated) do in these assays?
KCNQ2 enhance: 0.12; KCNQ2 enhance baseline: 1.6

What do the screens show for `CN(C(=O)CSc1nc2ccc(Br)cc2c(=O)n1Cc1ccco1)C1CCS(=O)(=O)C1` (configuration not stated)?
KCNQ2 enhance: 1.9; KCNQ2 enhance baseline: -0.01

How did COc1ccc(OC)c(C(=O)Nc2c(O)ccc3ccccc23)c1 do in these assays?
KCNQ2 enhance: 0.01; KCNQ2 enhance baseline: 0.57

How did O=C(Cc1ccc(Cl)cc1)Nc1cccc(-c2nnc(-c3ccco3)o2)c1 do in these assays?
KCNQ2 enhance: 1.4; KCNQ2 enhance baseline: 0.03

How did CCNc1nc(CC)nc2c1oc1ccccc12 do in these assays?
KCNQ2 enhance: 2.1; KCNQ2 enhance baseline: 0.08

What do the screens show for `CNc1nc(Cl)c(SC)c(NCc2ccc(F)cc2)n1`?
KCNQ2 enhance: 1.5; KCNQ2 enhance baseline: 1.8

What do the screens show for `O=C(CSc1ncnc2ccccc12)Nc1ccc2c(c1)OCO2`?
KCNQ2 enhance: 0.16; KCNQ2 enhance baseline: -1.1

Results for CCCCc1ccc(NC(=S)Nc2cccnc2)cc1 ?
KCNQ2 enhance: 0.93; KCNQ2 enhance baseline: 1.7

Results for OC[C@@H](O)[C@@H](O[C@@H]1O[C@H](CO)[C@H](O)[C@H](O)[C@H]1O)[C@H](O)[C@@H](O)CO ?
KCNQ2 enhance: 1.2; KCNQ2 enhance baseline: -0.74

What do the screens show for `OCCN1CCN(C(=S)NCCc2ccccc2)CC1`?
KCNQ2 enhance: 1.5; KCNQ2 enhance baseline: 2.6

How did Cc1ccc(C)c(/C=C/C(=O)c2ccccc(=O)c2O)c1 do in these assays?
KCNQ2 enhance: 18*; KCNQ2 enhance baseline: -1.1*

Results for Cc1cc(C)c2nc(NNC(=O)c3cc(=O)c4ccccc4o3)sc2c1 ?
KCNQ2 enhance: 0.55; KCNQ2 enhance baseline: 0.3

What do the screens show for `CCOCCCNC(=O)C(c1ccc(Cl)cc1)N(Cc1cccs1)C(=O)CNC(C)=O` (configuration not stated)?
KCNQ2 enhance: 0.03; KCNQ2 enhance baseline: -0.67

How did CN(C1CCCCC1)S(=O)(=O)c1cccc(C#N)c1 do in these assays?
KCNQ2 enhance: 0.23; KCNQ2 enhance baseline: -0.77

What do the screens show for `Cc1nc(N2CCN(C)CC2)c2sc(=S)n(C)c2n1`?
KCNQ2 enhance: 1.6; KCNQ2 enhance baseline: -2.3

How did O=C(O)Cc1coc(-c2ccc(F)cc2)n1 do in these assays?
KCNQ2 enhance: 0.16; KCNQ2 enhance baseline: 0.19

How did COc1cccc(CN2CCN(C(=O)c3ccco3)CC2)c1OC do in these assays?
KCNQ2 enhance: 2.2; KCNQ2 enhance baseline: 0.2

How did CC(=O)Nc1ccc(S(=O)(=O)N2CCN(C34CC5CC(CC(C5)C3)C4)CC2)cc1 do in these assays?
KCNQ2 enhance: 0.66; KCNQ2 enhance baseline: -1.4

What do the screens show for `COC(=O)C1=C(C)N(C2CCCC2)C(=O)C1(NC(C)=O)C(F)(F)F` (configuration not stated)?
KCNQ2 enhance: 0.04; KCNQ2 enhance baseline: -0.92

Results for Cc1ccc(S(=O)(=O)N2CCN(Cc3nc4sc(C)c(C)c4c(=O)[nH]3)CC2)cc1 ?
KCNQ2 enhance: 0.35; KCNQ2 enhance baseline: -0.98

What do the screens show for `O=C1CCCC2=C1C(c1ccccc1O)C1=C(CCCC1=O)O2`?
KCNQ2 enhance: 0.55; KCNQ2 enhance baseline: 0.04

What do the screens show for `C/C(=N/NC(=O)CNC(=O)Cc1ccc(Cl)cc1)c1ccco1`?
KCNQ2 enhance: 1.4; KCNQ2 enhance baseline: 1.3

How did CC(C(=O)O)n1ncc2ccccc2c1=O (configuration not stated) do in these assays?
KCNQ2 enhance: 0.29; KCNQ2 enhance baseline: 0.69

How did CCn1ncc([C@@H]2C[C@H]3CN(Cc4cccc(Cl)c4)C(=O)[C@]34CCCN24)c1C do in these assays?
KCNQ2 enhance: 0.93; KCNQ2 enhance baseline: -2

What do the screens show for `O=C(CCC(=O)c1cccs1)NNC(=O)c1cccc(Cl)c1`?
KCNQ2 enhance: 0.64; KCNQ2 enhance baseline: -1.5

What do the screens show for `c1ccc(CSc2nnc(-c3ccco3)o2)cc1`?
KCNQ2 enhance: 1.6; KCNQ2 enhance baseline: -1.3

How did CN(C)S(=O)(=O)c1cccc(C(=O)NCCOC(=O)c2cc(F)c(F)cc2Cl)c1 do in these assays?
KCNQ2 enhance: 1.4; KCNQ2 enhance baseline: -1.2

What do the screens show for `Cc1ccc(C)c(NC(=S)NC2CC3CCCC(C2)N3CC(C)C)c1` (configuration not stated)?
KCNQ2 enhance: 1.6; KCNQ2 enhance baseline: 1.1

How did Fc1ccc(Oc2nc(-c3ccccn3)nc3ccccc23)cc1 do in these assays?
KCNQ2 enhance: 0.9; KCNQ2 enhance baseline: -0.32

How did CC(C)CCNC(=O)CCCn1c(=O)[nH]c2ccc(Br)cc2c1=O do in these assays?
KCNQ2 enhance: 0.53; KCNQ2 enhance baseline: 1.3

What do the screens show for `CCN(CC)S(=O)(=O)c1cccc(NC(=O)COC(=O)c2cc(C)oc2C)c1`?
KCNQ2 enhance: 0.18; KCNQ2 enhance baseline: -0.21

What do the screens show for `O=C(Cn1c(NCCO)nc2ccccc21)c1ccco1`?
KCNQ2 enhance: 1.2; KCNQ2 enhance baseline: 0.08

What do the screens show for `O=C(Cn1c2ccc(F)cc2c2nc3n(c(=O)c21)CCS3)NCC1CCCO1` (configuration not stated)?
KCNQ2 enhance: 0.97; KCNQ2 enhance baseline: -0.4

Results for O=C1NC(=O)/C(=C\c2ccccc2OCc2ccccc2)S1 ?
KCNQ2 enhance: 0.21; KCNQ2 enhance baseline: -0.98

Results for COCCNc1c2c(nc3ccccc13)CCC2 ?
KCNQ2 enhance: 0.12; KCNQ2 enhance baseline: 1.1

Results for COc1ccc(CCNC(=O)CN2C(=O)COc3ccc(S(=O)(=O)N4CCCC4)cc32)cc1OC ?
KCNQ2 enhance: 1.8; KCNQ2 enhance baseline: -1.7

Results for CCCCNC(=S)NNC(=O)c1ccc(Br)o1 ?
KCNQ2 enhance: 0.03; KCNQ2 enhance baseline: 1.1

Results for CC(C)CCN(C(=O)CCCSc1nc2ccccc2[nH]1)c1c(N)n(Cc2ccccc2)c(=O)[nH]c1=O ?
KCNQ2 enhance: 0.07; KCNQ2 enhance baseline: 1.6

How did COc1ccc(Nc2nnc(Cc3ccc(Cl)cc3)c(=O)[nH]2)c(OC)c1 do in these assays?
KCNQ2 enhance: 0.16; KCNQ2 enhance baseline: -0.77

What do the screens show for `O=C(CSc1nnc2c(n1)[nH]c1ccccc12)OCc1ccccc1`?
KCNQ2 enhance: 0.47; KCNQ2 enhance baseline: 0.56

How did Oc1ccc(-c2csc(Nc3ncccn3)n2)cc1O do in these assays?
KCNQ2 enhance: 0.91; KCNQ2 enhance baseline: -0.58

What do the screens show for `COc1ccc(N2CCN(C(C)=C3C(=O)c4ccccc4C3=O)CC2)cc1`?
KCNQ2 enhance: 0.18; KCNQ2 enhance baseline: 0.11

Results for CCOc1ccc(C(=O)NCCN2CCOCC2)cc1 ?
KCNQ2 enhance: 0.14; KCNQ2 enhance baseline: 0.46

The closing 3 compounds of the part above are carried over, then new ones follow.
How did Oc1ccc(-c2csc(Nc3ncccn3)n2)cc1O do in these assays?
KCNQ2 enhance: 0.91; KCNQ2 enhance baseline: -0.58

What do the screens show for `COc1ccc(N2CCN(C(C)=C3C(=O)c4ccccc4C3=O)CC2)cc1`?
KCNQ2 enhance: 0.18; KCNQ2 enhance baseline: 0.11

Results for CCOc1ccc(C(=O)NCCN2CCOCC2)cc1 ?
KCNQ2 enhance: 0.14; KCNQ2 enhance baseline: 0.46

How did COc1ccc(C(=O)NCc2cccnc2)cc1S(=O)(=O)N1CCOCC1 do in these assays?
KCNQ2 enhance: 2.8; KCNQ2 enhance baseline: -0.55

Results for Cc1ccc(Cn2c(O)c(N=NC(=S)Nc3ccccc3F)c3cc(S(=O)(=O)N4CCOCC4)ccc32)cc1 ?
KCNQ2 enhance: 0.16; KCNQ2 enhance baseline: -1.7

What do the screens show for `CCCCOc1ccc(-c2nc(-c3cccnc3)no2)cc1`?
KCNQ2 enhance: 3; KCNQ2 enhance baseline: -0.8

Results for CC(C)C(=O)Nc1nnc(CCN2CCCCC2)s1 ?
KCNQ2 enhance: 0.89; KCNQ2 enhance baseline: -1.3

What do the screens show for `CCCC1(c2ccccc2)NC(=O)N(CC(=O)c2[nH]c(C)c(C(=O)OCC)c2C)C1=O` (configuration not stated)?
KCNQ2 enhance: 2.4; KCNQ2 enhance baseline: 1.1

Results for COCC(=O)N1CCC(Oc2ccc(C(=O)N3CCSCC3)cc2)CC1 ?
KCNQ2 enhance: 1.6; KCNQ2 enhance baseline: 0.27

How did N#CCc1nc(-c2cc3ccccc3oc2=O)cs1 do in these assays?
KCNQ2 enhance: 0.89; KCNQ2 enhance baseline: -1.1

How did O=c1[nH]c2ccc(Br)cc2c(-c2ccccc2)c1N1CCOCC1 do in these assays?
KCNQ2 enhance: 0.16; KCNQ2 enhance baseline: 3.1

How did Cc1ccc(N2C(=O)c3oc4ccccc4c(=O)c3C2c2cccc(O)c2)nc1 (configuration not stated) do in these assays?
KCNQ2 enhance: 0.62; KCNQ2 enhance baseline: 0.15

Results for Cc1ccc(OCCCNC2CCCC2)cc1 ?
KCNQ2 enhance: 0.6; KCNQ2 enhance baseline: -0.03

How did c1cncc(-c2nnc(SCc3nc4ccccc4[nH]3)o2)c1 do in these assays?
KCNQ2 enhance: 1.1; KCNQ2 enhance baseline: -0.42

Results for O=C(CSc1ccccn1)Nc1ccc(N2CCOCC2)cc1 ?
KCNQ2 enhance: 0.03; KCNQ2 enhance baseline: 2

What do the screens show for `CN(C)C(=S)SCC(=O)Nc1cccc(C(F)(F)F)c1`?
KCNQ2 enhance: 0.35; KCNQ2 enhance baseline: -0.21

Results for CC1CCc2nc3ccc(S(=O)(=O)N4CCC(C(=O)NC(C)c5ccccc5)CC4)cc3c(C(=O)O)c2C1 (configuration not stated) ?
KCNQ2 enhance: 4.2; KCNQ2 enhance baseline: 0.22

How did CN(/N=C/c1ccccc1O)C(=S)c1ccccc1 do in these assays?
KCNQ2 enhance: 0.3; KCNQ2 enhance baseline: 1.2

What do the screens show for `O=c1cc(N2CCC3(CC2)OCCO3)[nH]c(=O)n1-c1ccc(Br)cc1`?
KCNQ2 enhance: 0.57; KCNQ2 enhance baseline: 1.6

What do the screens show for `COC(=O)c1ccccc1NC(=O)Cn1cc(Br)cn1`?
KCNQ2 enhance: 1.4; KCNQ2 enhance baseline: -0.68

Results for Oc1ccc(C=NCCc2ccccc2)cc1 ?
KCNQ2 enhance: 2.2; KCNQ2 enhance baseline: -1.9

How did O=C(N/N=C/c1cn[nH]c1-c1ccc(Cl)cc1)c1ccc([N+](=O)[O-])cc1 do in these assays?
KCNQ2 enhance: 2.2; KCNQ2 enhance baseline: 0.6

How did FC(F)(F)c1cccnc1Oc1ccc(C2=NCCS2)cc1 do in these assays?
KCNQ2 enhance: 5.4*; KCNQ2 enhance baseline: 2.5*

What do the screens show for `Cc1nn(-c2ccccc2)c2nc3c(cc12)C(=O)CCC3`?
KCNQ2 enhance: 0.48; KCNQ2 enhance baseline: 0.28

Results for O=C(Cn1c(NCCO)nc2ccccc21)NCCc1ccc(F)cc1 ?
KCNQ2 enhance: 1.6; KCNQ2 enhance baseline: -1.1

Results for Cc1ccc(S(=O)(=O)NC(=O)NCc2ccccn2)cc1 ?
KCNQ2 enhance: 0.52; KCNQ2 enhance baseline: -1.7

What do the screens show for `C=CCOc1ccc(/C=N/NC(=O)CN2CCOCC2)cc1OCC`?
KCNQ2 enhance: 0.7; KCNQ2 enhance baseline: 2.1

Results for Cc1cc(=O)[nH]c(SCC(=O)Nc2cccc(C(F)(F)F)c2)n1 ?
KCNQ2 enhance: 1.3; KCNQ2 enhance baseline: -2.3

How did COc1ccc(C(=O)Nc2ccc(OCC(F)(F)C(F)F)c(C(F)(F)F)c2)cc1OC do in these assays?
KCNQ2 enhance: 0.11; KCNQ2 enhance baseline: -0.38

What do the screens show for `COc1ccc(OCC(O)COc2ccc(C(=O)O)cc2)cc1` (configuration not stated)?
KCNQ2 enhance: 2.5; KCNQ2 enhance baseline: -1.8

What do the screens show for `O=c1cc(O)c2c(=O)[nH]c(=O)n(-c3ccccc3)c2[nH]1`?
KCNQ2 enhance: 1; KCNQ2 enhance baseline: 1.2

Results for O=C(COC(=O)c1ccccn1)Nc1nccs1 ?
KCNQ2 enhance: 0.58; KCNQ2 enhance baseline: -1.7

Results for CCOC(=O)c1[nH]c2ccc(OCC)cc2c1NC(=O)CN1CCC2(CC1)OCCO2 ?
KCNQ2 enhance: 1.6; KCNQ2 enhance baseline: -2

Results for COc1cc(/C=N/NC(=O)c2cc(C)oc2C)cc(OC)c1OC ?
KCNQ2 enhance: 1.4; KCNQ2 enhance baseline: 0.49

What do the screens show for `C=CCc1cccc2ccc(=O)oc12`?
KCNQ2 enhance: 0.81; KCNQ2 enhance baseline: 1.6

An excerpt from above in order of heavy-atom count, low to high.
Results for Oc1ccc(C=NCCc2ccccc2)cc1 ?
KCNQ2 enhance: 2.2; KCNQ2 enhance baseline: -1.9

How did FC(F)(F)c1cccnc1Oc1ccc(C2=NCCS2)cc1 do in these assays?
KCNQ2 enhance: 5.4*; KCNQ2 enhance baseline: 2.5*

What do the screens show for `C=CCOc1ccc(/C=N/NC(=O)CN2CCOCC2)cc1OCC`?
KCNQ2 enhance: 0.7; KCNQ2 enhance baseline: 2.1
